Source: PubChem
CDC25B CDK2 inh: human CDC25B-CDK2/CyclinA binding inhibition. z-score (test concentration not listed). HTRF CDC25B-CDK2/CyclinA binding, anti-His/anti-Flag; hits give high values. 0.72% of 94,000 active. P30305+P24941. AID 1259370;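 further: score is relative to mean and SD of negative controls; strong numbers were not always called active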
TAR Tat displ: HIV-1 TAR-Tat binding disruption. z-score (concentration not given with the values). 0.6% of 100,000 active. HIV-1 TAR RNA, Tat peptide displacement FRET; hits give high values;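 further: score is relative to mean and SD of negative controls; some compounds called inactive have numbers as strong as hits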
Starred values were filed as active, the others as inactive; · = no result given; & = joins results of further samples.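 How the source made its calls: active means z-score from 3 up in half or more of its runs; inactive means the rest.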

SMILES	CDC25B CDK2 inh	TAR Tat displ
Cc1ccc(N2CC(C(=O)N3CCN(c4ccc(-c5noc(C6CC6)n5)cc4)CC3)CC2=O)cc1C (configuration not stated)	·	0.45
Cc1nc(CNC(=O)C(C)C)cs1	-1.5	1.7
O=C(NCC(c1cccs1)S(=O)(=O)c1ccc(F)cc1)c1ccc2c(c1)OCO2 (configuration not stated)	·	1.2
CC1CC(=O)Nc2cc(S(=O)(=O)Nc3ccccc3Cl)ccc2S1 (configuration not stated)	·	0.18
COc1ccc(C2C(C(=O)OC(C)(C)C)C(=O)CC(C)(O)C2C(=O)OC(C)(C)C)cc1OC (configuration not stated)	-2.2	-1.2
C=CC(C)(C)c1c2c(c(O)c3c(=O)c4ccc(O)c(O)c4oc13)C=CC(C)(C)O2	·	2.2
Cc1ccc(C)c(N2CCN(S(=O)(=O)c3cn(C)cn3)CC2)c1	·	1.4
O=C(c1cc2ccc3cccnc3c2[nH]1)N1CCN(C2CCCCC2)CC1	·	1.6
CC(C)(C)OC(=O)N1CCN(C(=O)/C=C/C(=O)O)CC1	-1.4	·
COc1ccc2c(c1)CCCN2C(=O)c1c(-c2c(Cl)cccc2Cl)noc1C	-1.1	·
COC(=O)c1cnn2c(C(F)F)cc(-c3ccc(C)cc3)nc12	-2.1	0.22
FC(F)(F)c1nnc2sc(COc3ccccc3Cl)nn12	-0.86	-2.3
COCc1cc(C)nc(N2CCOCC2)c1C#N	11	1.6
CC1(C)CC(=O)C2=C(C1)N(c1ccc(F)cc1)C1=C(C(=O)CC(C)(C)C1)C2c1cccs1	-0.45	·
CCc1cc2c(N3CCN(c4ccccc4)CC3)ncnc2s1	·	1.5
O=C(C1=Cc2ccccc2OC=C1)N1CCOCC1	-0.09	-1
CC(C)c1nn2c(=O)cc(CSc3ccccc3NC(=O)c3ccco3)nc2s1	·	0.87
O=C1C2=C(Nc3ccccc3SC2c2cccs2)c2ccccc21 (configuration not stated)	-2.8	-0.94
CN(CC(=O)N1CCN(c2ncccn2)CC1)S(=O)(=O)c1cccc2nsnc12	0.28	-0.28
CCC(C(=O)N1CCCC1)n1nc(C)c2sc3ccccc3c2c1=O (configuration not stated)	-1.1	2.9
CN(C)S(=O)(=O)N1CCCN(S(=O)(=O)N(C)C)CC1	-1.6	1.8
CCc1ccc(-c2cc(C)no2)cc1S(=O)(=O)Nc1c(C)cccc1C	·	0.41
Cn1c(-c2nnc(SCC(=O)N3CCN(c4ccccc4F)CC3)o2)cc2ccccc21	-1.4	1.5
CCc1ccc(C(=O)CC2(O)C(=O)Nc3ccccc32)cc1 (configuration not stated)	-0.43	-0.92
Cc1ccc2nc(NC(=O)c3cc(=O)c4cc(C)cc(C)c4o3)sc2c1	-0.88	-0.25
COc1cccc(Cn2cc(C(=O)c3ccc(Cl)cc3)c(=O)c3cc4c(cc32)OCO4)c1	-1.8	0.42
Cc1ccc(CNS(=O)(=O)c2ccc3c(c2)CC(C)N3C(=O)C2CCC2)o1 (configuration not stated)	·	-2.1
O=C(Nc1ccc2[nH]ncc2c1)C1CCC1	-0.85	·
COc1cc(NC(=O)CS(=O)(=O)c2ccc3c(c2)S(=O)(=O)N=C(C)N3)cc(OC)c1	·	2.1
CC(C)Cn1c(=O)n(C)c(=O)c2[nH]cnc21	0.1	2.5&1.5
COc1ccc(C2/C(=C(\O)c3ccccc3)C(=O)C(=O)N2CCCn2ccnc2)c(OC)c1 (configuration not stated)	-1.7	0.67
CCCCc1nnc(NC(=O)c2sc(C)nc2C)s1	-1.9	1.4
CCC1CN(S(=O)(=O)c2ccc(CN3C(=O)c4cccnc4C3=O)s2)c2cc(C)ccc2O1 (configuration not stated)	·	1.1
Cc1cc(C)n(-c2nc3ccccc3nc2Nc2ccccc2F)n1	0.13	0.65
CCC1Nc2c(sc3nc(C)cc(COC)c23)C(=O)N1Cc1ccco1 (configuration not stated)	-0.6	-2.4
O=C(CSc1ccccc1)Nc1ccc(OCc2cc(=O)n3ccsc3n2)cc1	-2.2	-0.54
C#CC(C)(C)NCc1c(C)c(C)c(C)c(C)c1C	-2.4	·
O=c1c2cnn(-c3ccccc3)c2nc(-c2ccco2)n1-c1ccccc1	0.3	-0.46
O=c1ccc(-c2ccc(S(=O)(=O)N3CCC(c4ccccc4)C3)s2)n[nH]1 (configuration not stated)	·	2.5
CC1(C)Cc2ccccc2-c2nnc(-c3ccccc3)n21	-1.5	-0.11
CC1=NN(C(=O)c2ccc(OC(C)C)cc2)C(O)(C(F)(F)F)C1 (configuration not stated)	-0.7	·
COCCNS(=O)(=O)c1cc2c(cc1Cl)NC(=O)CO2	·	-5.3
CCOc1cc(C(=O)Nc2cccc3ccccc23)cc(OCC)c1OCC	-1.1	·
O=C1CCSc2ccc(S(=O)(=O)NCc3ccccc3)cc2N1	·	-0.04
C1CCC2(CC1)OCC(CN1CCCC1)O2 (configuration not stated)	-1.5	·
Cc1cc(C)c(C#N)c(Nc2cccc(Cl)c2)n1	-0.52	1
CCOC(=O)c1cc(S(=O)(=O)N(C)CC(=O)NCc2cccs2)cn1C	·	0.52
CCOc1ccccc1CNS(=O)(=O)c1cc(-c2cnc(C)o2)ccc1C	·	1.4
Cc1cccc(C)c1Nc1c(-c2cccnc2)nc2sccn12	-1.5	-1.9
CN1CCN(C(=O)c2cn[nH]c2C2CCNCC2)CC1	·	-1.1
Nc1nc2c(c(=O)[nH]1)C(c1cccc(F)c1)CC(=O)N2 (configuration not stated)	-1.6	-0.86
Cc1ccc2ncc(C(=O)Nc3ccc(Cl)cc3)c(=O)n2c1	-2.9	0.82
COCCn1c(CN(C)C(=O)Nc2ccc(Br)cc2)nc2ccccc2c1=O	·	1.2
Cc1cc(NC(=O)CN2CCSCC2)no1	-1.2	·
CCOc1cc(C)c(Cl)cc1S(=O)(=O)n1cnc(C)c1	0.07	-6.3
Cc1cccc(NC2=NS(=O)(=O)c3ccccc32)c1	0.61	0.94
O=C(CCCC1=NS(=O)(=O)c2ccccc2N1)Nc1ccc(F)c(Cl)c1	·	-1.3
Nc1ccc(SCc2nnc(-c3ccccc3)o2)cc1	-3.2	1.9
CCCS(=O)(=O)Nc1cccc(-c2cn3ccsc3n2)c1	·	16*
CC1(C)C(=O)N(CC(=O)N2CCc3ccccc32)c2ccccc21	·	-0.03

Looked up above:
CCCS(=O)(=O)Nc1cccc(-c2cn3ccsc3n2)c1 in TAR Tat displ is listed with 16*
CC(C)(C)OC(=O)N1CCN(C(=O)/C=C/C(=O)O)CC1 in CDC25B CDK2 inh is listed with -1.4

Continuation:
SMILES	CDC25B CDK2 inh	TAR Tat displ
O=C(c1ccco1)N1CCN(C2(c3ccccc3)C(=O)c3ccccc3C2=O)CC1	·	1
O=c1[nH][nH]c2c1cnc1c(F)cc(F)cc12	-1.4	·
Cc1c(C(=O)NC2CCCC2)sc2ncnc(N3CCCC3)c12	·	1.7
CC1(C)CC(NC(=O)CCCCC(=O)NC2CC(C)(C)NC(C)(C)C2)CC(C)(C)N1	-0.47	1.6
CC(C)CNC(=O)Nc1ccc2nc(NS(C)(=O)=O)sc2c1	·	1.1
NC(=O)C1(N2CCCCC2)CCN(C(=O)c2noc3c2CCc2sccc2-3)CC1	·	0.32
CC(=O)Oc1ccccc1C1OC(c2ccccc2Br)=NN1C(C)=O (configuration not stated)	·	1.8
O=c1c(S(=O)(=O)c2ccc(Cl)cc2)c[nH]c2cc3c(cc12)OCCO3	-2.7	·
O=C(Nc1nccs1)NC1CC(=O)N(c2ccccc2)C1 (configuration not stated)	·	-0.18
CCOc1nonc1C(=N)/C(C(C)=O)=C(\C)O	-2.4	·
CCSc1nnc2c(n1)OC(c1cccc(O)c1Cl)Nc1ccccc1-2 (configuration not stated)	-1.2	-0.77
O=C(CCc1nnc2ccc(N3CCCCC3)nn12)NC1CCCC1	·	-0.83
O=C(NC(NC(=S)Nc1cccc2ccccc12)C(Cl)(Cl)Cl)c1ccccc1F (configuration not stated)	5.3*	·
CC1=C(C(=O)OCCOC(C)C)C(c2ccc(C)o2)C2=C(CCCC2=O)N1 (configuration not stated)	0.54	2.2
Cc1cn2c(=O)c(S(=O)(=O)NCc3ccccc3)c(C)nc2s1	-2.7	-0.69
O=C(Cn1ncc2ccsc2c1=O)N1CCc2ccccc21	-2.3	0.8
O=c1c(S(=O)(=O)c2ccccc2)cn(Cc2ccc(F)cc2)c2cc(N3CCOCC3)c(F)cc12	·	1.2
CN1CCN(C(=O)CCSc2nc(-c3ccc4c(c3)OCO4)cc(C(F)(F)F)n2)CC1	0.05	1.2
CCCOC(=O)c1[nH]c2c(c1C)C(=O)CC(c1cccs1)C2 (configuration not stated)	-0.58	·
CCOc1ccc(N(C)S(=O)(=O)c2ccc(Cl)cc2)cc1	-1.3	1.7
CC(C)(C)OC(=O)N1CCC(c2nc(-c3ccc(Cl)s3)cs2)CC1	-1.1	·
COC(=O)C1=C(C(=O)c2ccccc2)C(c2ccc(O)c(OC)c2)n2nnnc2N1 (configuration not stated)	-0.98	0.85
CCOC(=O)COc1ccc(=O)n(-c2ccccc2)n1	0.57	0.01
Cc1ccc(-c2c(Nc3ccc(Br)c(C)c3)c(=O)c2=O)cc1C	·	3.7
CN(C)S(=O)(=O)c1cc2c(s1)SCC(=O)N2CC(=O)Nc1ccc(Cl)cc1F	·	0.16
Cn1c(CNC(=O)OC(C)(C)C)nnc1SCc1ccccc1	-0.72	·
Cc1cc(C)c(S(=O)(=O)NCc2nc3nc(C)cc(C)n3n2)c(C)c1	-0.41	-0.77
O=C(c1cc(-c2ccncc2)n[nH]1)N1CCOCC1	·	3.7
COc1cccc(C2C(C(=O)OC(C)C)=C(C)NC3=C2C(=O)CC(c2ccccc2)C3)c1OC (configuration not stated)	-1	-0.88
Cc1ccc(S(=O)(=O)Nc2ccc3c(c2)N(S(C)(=O)=O)CCC3)s1	·	1.8
O=S(=O)(Cc1ccccc1)NCc1ccccn1	-1.5	0.72
COc1ccc(-c2nnc(SCCOc3ccc(C)cc3)o2)cc1OC	-1.6	2.4
Nc1c(-c2nc(-c3ccccc3)cs2)c2ccccn2c1C(=O)c1ccc2c(c1)OCO2	2.7	0.82
S=C(N/N=C\c1ccn[nH]1)NC1CCCCC1	-1.2	·
O=C(Cn1ncc2ccccc21)Nc1c(F)cc(F)cc1Br	0.44	0.94
CCCCN(CCCn1cnc2c([nH]c3ccccc32)c1=O)Cc1ccccc1	0.03	0.59
CCc1ccc(NS(=O)(=O)c2ccc3oc(=O)c4ncn(C)c4c3c2)cc1	·	0.92
CCc1cc2c(N3CCC(C(=O)NCCc4ccco4)CC3)ncnc2s1	·	1.2
COc1cccc(CNC(=O)c2ccc3c(c2)[nH]c(=S)n2c4ccccc4nc32)c1	-0.54	·
CC(NS(=O)(=O)c1ccc(F)cc1)c1nc(-c2ccccc2)no1 (configuration not stated)	-0.63	1.1

Exported comma-delimited: seven of the compounds above
SMILES,CDC25B CDK2 inh,TAR Tat displ
O=C(Cn1ncc2ccccc21)Nc1c(F)cc(F)cc1Br,0.44,0.94
COC(=O)C1=C(C(=O)c2ccccc2)C(c2ccc(O)c(OC)c2)n2nnnc2N1 (configuration not stated),-0.98,0.85
CC(NS(=O)(=O)c1ccc(F)cc1)c1nc(-c2ccccc2)no1 (configuration not stated),-0.63,1.1
O=S(=O)(Cc1ccccc1)NCc1ccccn1,-1.5,0.72
COc1cccc(C2C(C(=O)OC(C)C)=C(C)NC3=C2C(=O)CC(c2ccccc2)C3)c1OC (configuration not stated),-1,-0.88
CN(C)S(=O)(=O)c1cc2c(s1)SCC(=O)N2CC(=O)Nc1ccc(Cl)cc1F,·,0.16
Cc1cc(C)c(S(=O)(=O)NCc2nc3nc(C)cc(C)n3n2)c(C)c1,-0.41,-0.77

The list continues:
SMILES	CDC25B CDK2 inh	TAR Tat displ
CCN1CCN(CCCNC(=O)C2CCN(c3nnc(N4CCCCC4=O)s3)CC2)CC1	·	0.26
COc1ccc(CNc2nc(N3CCN(C)CC3)nc3c2cnn3C)cc1	·	1.8
CCCSc1nnc(NC(=O)c2nn(-c3ccc(CC)cc3)ccc2=O)s1	-0.92	0.27
Cc1cc(-c2ccc(S(=O)(=O)Nc3ccc(C)c(C)c3)s2)on1	·	0.2
NC(=O)N/N=C/c1ccc([N+](=O)[O-])o1	·	2
CCSCCOC(=O)C1=C(C)NC2=C(C(=O)CCC2)C1c1ccc(-c2ccccc2)cc1 (configuration not stated)	-0.49	1.1
CSc1nc(CSc2ccc(Cl)cc2)nc(C2CC2)c1C#N	0.11	·
O=C(CN1c2ccc(Br)cc2-c2ccccc2S1(=O)=O)Nc1ccc(F)cc1	-0.6	0.83
O=C(O)c1ccccc1SC1CC(=O)N(c2ccc(F)cc2)C1=O (configuration not stated)	-0.22	0.85
C=CCn1c(=S)[nH]c2sc3c(c2c1=O)CCCCC3	-2.6	·
CCCCS(=O)(=O)c1oc(-c2ccc(F)cc2)nc1S(=O)(=O)c1ccccc1	-2.5	-0.55
Cc1nc(Nc2ccccc2)sc1C(=O)c1ccc(F)cc1	0.22	·
Cc1c(C(=O)C(=O)N2CCCCC2C)c2ccccc2n1C (configuration not stated)	-1.2	·
CCCN1C(=O)CCC1(C)C(=O)NCCC(C)C (configuration not stated)	-1.3	-0.14
Nc1nc(-c2ccc3c(c2)CCC3)cc(C(F)(F)F)n1	-0.39	·
COc1ccc(-c2nc(NCc3ccc4c(c3)OCO4)c3ccccc3n2)cc1	·	1.1
CCCCNC(=O)c1sc(=S)n2c1[nH]c(=O)c1ccccc12	·	-0.87
CC1=C(C)CC(C(=O)Nc2ccc(-n3cnnn3)c(C)c2)C(C(=O)O)C1 (configuration not stated)	-0.19	2.1
Clc1ccccc1CNCCSc1nnnn1-c1ccccc1	0.28	-1.1

Full records, looked up by structure:
Entry for `COc1ccc(-c2nc(NCc3ccc4c(c3)OCO4)c3ccccc3n2)cc1` : CDC25B CDK2 inh = ·; TAR Tat displ = 1.1
Entry for `Cc1c(C(=O)C(=O)N2CCCCC2C)c2ccccc2n1C` (configuration not stated) : CDC25B CDK2 inh = -1.2; TAR Tat displ = ·
Entry for `CCCCS(=O)(=O)c1oc(-c2ccc(F)cc2)nc1S(=O)(=O)c1ccccc1` : CDC25B CDK2 inh = -2.5; TAR Tat displ = -0.55
